Compound activity from PubChem BioAssay.
RecA splice inh – Mtb RecA intein splicing inhibitors, primary screen, biochemical, fluorescence, HTS. cell-free RecA intein splicing. 0.75% of 290,000 active. Protein RecA (Mycobacterium tuberculosis (strain ATCC 25618 / H37Rv)), P9WHJ3. inhibition, %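 (about 9 µM by stock and volumes)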; in the data active means inhibition above about 30%;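 further: 0% = vehicle wells and 100% = reference inhibitor control wells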
Target sequence (P9WHJ3 whole entry, looked up, canonical isoform): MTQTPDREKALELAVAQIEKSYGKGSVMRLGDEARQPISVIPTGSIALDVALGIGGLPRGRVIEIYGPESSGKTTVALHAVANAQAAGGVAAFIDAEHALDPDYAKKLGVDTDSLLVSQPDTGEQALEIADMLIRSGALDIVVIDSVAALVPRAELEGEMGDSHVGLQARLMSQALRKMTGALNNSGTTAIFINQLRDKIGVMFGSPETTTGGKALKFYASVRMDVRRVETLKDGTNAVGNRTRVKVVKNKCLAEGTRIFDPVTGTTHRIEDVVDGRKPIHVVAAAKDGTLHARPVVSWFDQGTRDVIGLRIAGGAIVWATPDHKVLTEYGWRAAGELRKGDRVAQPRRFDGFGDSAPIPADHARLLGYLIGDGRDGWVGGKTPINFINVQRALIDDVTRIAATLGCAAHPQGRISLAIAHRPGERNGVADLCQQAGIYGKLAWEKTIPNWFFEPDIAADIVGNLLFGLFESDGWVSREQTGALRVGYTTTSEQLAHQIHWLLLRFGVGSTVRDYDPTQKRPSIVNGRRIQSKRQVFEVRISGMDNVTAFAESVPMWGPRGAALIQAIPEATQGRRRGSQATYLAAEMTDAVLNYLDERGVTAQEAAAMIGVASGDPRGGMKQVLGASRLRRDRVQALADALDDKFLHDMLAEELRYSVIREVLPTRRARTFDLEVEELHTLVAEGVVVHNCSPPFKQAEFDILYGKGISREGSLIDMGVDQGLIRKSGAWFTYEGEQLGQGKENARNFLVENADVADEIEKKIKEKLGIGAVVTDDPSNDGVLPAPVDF
Arbovirus inh – antivirals against arbovirus infection, primary screen, cell-based, full library, 10K replicate subset | arbovirus infection cell-based antiviral screen | inhibition, % at 10 µM | 0.37% of 200,000 active | AID 1251, 2008;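 active means inhibition from about 30%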;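 further: bluetongue infection of BSR cells; cell survival read as ATP light after 72 h; 0% = infected wells without compound and 100% = uninfected wells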
Mtb growth – M. tuberculosis H37Rv growth inhibitors, H37Rv strain (AID 1626); M. tuberculosis H37Rv growth inhibition; higher % means a stronger effect; inhibition, % at 10 µM, or IC50 in µM where a hit was titrated; 0.95% of 220,000 active;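 active means confirmed in a dose series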;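 further: bacteria incubated seven days before Alamar blue readout; 0% = bacteria only wells and 100% = bacteria with antibiotic wells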
Mtb betalactam – beta-lactam sensitization of Mtb H37Rv, H37Rv; M. tuberculosis H37Rv growth with meropenem, percent inhibition; hits of this screen are not shown here; inhibition, % at 25 µM; 0.27% of 330,000 active; AID 434955, 2010;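 active means about 74% or more and at least 40 points above the plate without the antibiotic, then above 30% in a dose series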;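 further: growth measured after seven days incubation then overnight dye step; 0% = bacteria only wells and 100% = bacteria with antibiotic; twin plates without the antibiotic show which effects depend on it; some results filed as inactive read as strong as hits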
YopH inh – YopH tyrosine phosphatase inhibitors, primary screen, biochemical, fluorescence Ex485/Em525. YopH tyrosine phosphatase [Yersinia enterocolitica]. 0.16% of 140,000 active. inhibition, %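 (about 10 µM by stock and volumes)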;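 active means inhibition of 50% or more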;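 further: controls were vehicle for no effect and minimum signal wells for full effect; inactives centre near -20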
Arbovirus inh repeat – recorded beside Arbovirus inh, whose call it bears; inhibition, %; measured here: 10K subset replicate screen; many hits read low in the repeat;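 first of two repeat runs on a subset; 0% = infected and 100% = uninfected wells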
Active calls of the source: *; / = not tested or not shown. The list is partial; rates above refer to the full screens.

SMILES	RecA splice inh	Arbovirus inh	Mtb growth	Mtb betalactam	YopH inh	others
CCOC(=O)C1=C(COC(=O)/C=C/c2cccc(OC)c2OC)NC(=O)NC1C (centres undefined)	1.4	/	/	8	/
N#Cc1cc(S(=O)(=O)c2ccccc2)c(N)[nH]c1=O	0.3	-4	-4%	0	-25
CCCCNC(=O)CC(NS(=O)(=O)c1ccc(C)cc1)c1ccco1 (centres undefined)	1.9	4	-13%	-17	-32
Cc1cc(Cl)c2oc(C(=O)NC(C)c3ccncn3)c(C)c2c1 (centres undefined)	2.1	/	/	0	/
N#Cc1ccc(CC(C(=O)O)N2Cc3ccccc3C2=O)cc1 (centres undefined)	-4.2	/	/	-6	/
Cc1ccc(Nc2cc(C)c(O)c(C)c2)cc1	-2.2	/	/	95	/
CC(/C=N/Nc1nnc2c(n1)[nH]c1ccccc12)=C\c1ccco1	/	-7	1%	14	-16
Cc1ccc(-c2noc(C3CCCN(C(=O)c4ccc(F)cc4F)C3)n2)cc1 (centres undefined)	0.9	-1	6%	19	14
Cc1c(S(=O)(=O)Nc2cc(Cl)ccc2Cl)c(=O)n(C)c(=O)n1C	0.0	6	3%	-5	-49
COc1ccc(CC(=O)NC2CCN(CC(=O)N3CCCc4ccccc43)CC2)cc1OC	-2.8	2	-8%	3	-5

Looked up one by one from the list above (4):
SMILES	RecA splice inh	Arbovirus inh	Mtb growth	Mtb betalactam	YopH inh	others
COc1ccc(CC(=O)NC2CCN(CC(=O)N3CCCc4ccccc43)CC2)cc1OC	-2.8	2	-8%	3	-5
CC(/C=N/Nc1nnc2c(n1)[nH]c1ccccc12)=C\c1ccco1	/	-7	1%	14	-16
CCOC(=O)C1=C(COC(=O)/C=C/c2cccc(OC)c2OC)NC(=O)NC1C (centres undefined)	1.4	/	/	8	/
Cc1cc(Cl)c2oc(C(=O)NC(C)c3ccncn3)c(C)c2c1 (centres undefined)	2.1	/	/	0	/

More records.
SMILES	RecA splice inh	Arbovirus inh	Mtb growth	Mtb betalactam	YopH inh	others
COC(=O)c1nn(-c2ccccc2)c(=O)cc1Oc1ccc(Cl)cc1	-0.8	2	-9%	-1	-51
CCN=C(NS(=O)(=O)c1ccc(Br)cc1)c1ccc(Cl)cc1	1.0	-2	-3%	9	/
N#CC1=C(N)N(c2ccc(F)cc2)C(=O)C1	-0.9	9	5%	7	-14
C/C(=N/N=C/c1ccc(N(C)C)cc1)c1ccccc1	-3.5	-5	-9%	3	-35
Cc1cc(=O)oc2c(C)c(OC(C)C(=O)NC3CCN(Cc4ccccc4)CC3)ccc12 (centres undefined)	0.4	/	/	2	/
CCN(CC(=O)NC(=O)NC1CCCC1)Cc1ccccc1	-7.6	/	/	-6	/
O=C(Nc1ccc(C(=O)N2CCOCC2)cc1)c1cnn2c(C(F)F)cc(-c3ccccc3)nc12	-5.0	-4	2%	-2	/
CCOc1ccccc1C(=O)Nc1cccc(-c2ccc3nncn3n2)c1	-13	-4	25%	/	/
O=C(CCCSc1nc2ccccc2[nH]1)NCc1ccccc1F	/	13	-1%	2	/
COc1ccc2c(C)cc(=O)oc2c1C	3.4	-2	0%	2	-32	Arbovirus inh repeat=2

Nothing new here: entries from further up.
SMILES	RecA splice inh	Arbovirus inh	Mtb growth	Mtb betalactam	YopH inh	others
CCOC(=O)C1=C(COC(=O)/C=C/c2cccc(OC)c2OC)NC(=O)NC1C (centres undefined)	1.4	/	/	8	/
N#Cc1cc(S(=O)(=O)c2ccccc2)c(N)[nH]c1=O	0.3	-4	-4%	0	-25
CCCCNC(=O)CC(NS(=O)(=O)c1ccc(C)cc1)c1ccco1 (centres undefined)	1.9	4	-13%	-17	-32

New compounds follow
SMILES	RecA splice inh	Arbovirus inh	Mtb growth	Mtb betalactam	YopH inh	others
Cc1ccccc1/C(N)=N/OC(=O)N1c2ccccc2Sc2ccccc21	4.9	4	/	100	-27
CCn1c(NCc2ccc(N(C)C)cc2)nc2ccccc21	-2.1	11	3%	-12	2
CCOc1c(Cl)cc(C(=O)NCCN2CCCCC2)cc1Cl	0.2	-12	-1%	-11	-19
CCOC(=O)C1=C(C)N(c2ccc(C)cc2)C(=O)/C1=C\c1cccs1	0.2	3	-10%	11	-38
Cc1c(C)c2ccc(O[C@@H]3O[C@H](CO)[C@@H](O)[C@H](O)[C@H]3O)c(C)c2oc1=O	-0.9	/	/	-7	/
CCCNC(=O)C12CCC(C)(C(=O)C1Br)C2(C)C (centres undefined)	/	-4	0%	-1	-27
C/C(=N\Nc1ccc(S(N)(=O)=O)cc1[N+](=O)[O-])c1cccs1	3.2	/	/	-7	/
CCC(=O)N(Cc1cc(=O)[nH]c2ccccc12)c1ccccc1	-0.7	/	-2%	-9	/
C/C(=N\NC(=O)c1cc(-c2ccc(C)s2)[nH]n1)c1ccco1	/	-9	24%	64	-23
COc1ccccc1CCc1nnc(CCC(=O)NCC(C)Oc2cccnc2)o1 (centres undefined)	0.9	2	-2%	-4	/
N#C[C@H]1C(O)C(O)c2ccccc2N1C(=O)c1ccccc1 (some centres undefined)	-0.9	/	-7%	-7	/
Cc1ccc2c(COn3nnc4ccc(S(=O)(=O)N(C)C)cc43)cc(=O)oc2c1C	0.4	2	-14%	/	-16
O=C(Oc1ccnc2cc(Cl)ccc12)N1CCOCC1	-0.7	1	3%	1	-28	Arbovirus inh repeat=-9
CSc1ccc(Cl)c(C(=O)NC2CCCC2)c1	0.4	5	-4%	1	13
Cc1nnc(SCC(=O)N2CCc3ccccc3C2)s1	6.2	12	-6%	1	-6
COc1ccc(N/N=C(/C#N)S(=O)(=O)c2nsc(C)c2C#N)cc1	-0.9	9	4%	1	-22
Cc1ccnc(NS(=O)(=O)c2ccc(NC(=O)C3COc4ccccc4O3)cc2)n1 (centres undefined)	0.1	13	6%	-3	/
COc1cccc(C(=O)Nc2nnc(S(=O)(=O)N(C)Cc3ccc(F)cc3)s2)c1	3.8	/	/	9	/
COc1ccc(/C=N/N2CCOCC2)cc1Cn1cc([N+](=O)[O-])cn1	-2.1	/	3%	-4	/
CC(=O)Nc1ccc(S(=O)(=O)N(C)CC(=O)OCC(=O)N2CCCCC2)cc1	-1.1	/	/	-3	/
O=C(N/N=C/c1ccoc1)c1ccccc1	-0.5	/	/	2	/
O=C(CSc1nnc(-c2cccnc2)n1Cc1ccccc1)NCc1ccco1	3.2	0	-5%	0	-40
C[N+]12CCC(CC1)C(OC(=O)C(O)(c1ccccc1)c1ccccc1)C2 (centres undefined)	0.4	5	-6%	0	-26
CCOC(=O)c1ccc(N2C(=O)CC(N3CCC(C#N)(c4ccccc4)CC3)C2=O)cc1 (centres undefined)	-3.6	16	-8%	-2	-30
CCCCC1(C)OC(=O)C(=Cc2c[nH]c3ccccc23)C(=O)O1 (centres undefined)	-0.1	0	-2%	6	/
CNCCc1ccccc1	-0.8	/	-8%	3	/
COC(=O)c1cccc(S(=O)(=O)N(Cc2ccco2)Cc2cc3cc(OC)c(OC)cc3[nH]c2=O)c1	-5.4	-2	-2%	2	-25
O=C(c1ccccc1)c1cc2ccc(O)cc2oc1=O	1.6	4	-2%	-2	-10
CC(C)(C)OC(=O)N1CCC(c2c(C(=O)N3CCN(C(=O)c4ccco4)CC3)cnn2-c2cccc(Cl)c2)CC1	-0.1	/	/	-1	/
COc1cc(C(=O)N(C)Cc2cccc(OC)c2OC)ccc1OCC(=O)Nc1cccc(C(F)(F)F)c1	-0.4	/	/	1	/
CC1CCCC(C)N1C(=O)Cn1c(=O)sc2ccccc21 (centres undefined)	-0.7	-1	4%	0	-35	Arbovirus inh repeat=0
COc1cccc(OCC(O)CN2CCN(c3ncccn3)CC2)c1 (centres undefined)	-1.2	3	2%	7	-23
CCn1c(SC)nnc1-c1sc2cc(Cl)ccc2c1Cl	10	1	-4%	14	-3
Cc1ccc(S(=O)(=O)O/N=C2\CCCc3ccccc32)cc1	3.0	-2	5%	4	-26
CCc1noc(C)c1C(=O)N1CCCC(N2CCN(c3ccccc3F)CC2)C1 (centres undefined)	-2.0	/	/	-11	/
C=C(C)CN1C(=O)C(O)(CC(=O)c2ccc3c(c2)OCCO3)c2ccccc21 (centres undefined)	-1.3	-9	5%	-5	-14
Cc1cc(C)c2sc(NNC(=O)c3ccc(S(=O)(=O)N4CCc5ccccc5C4)cc3)nc2c1	-6.3	-30	8%	-1	-29
Cc1ccc(Cn2nc(C)c(NC(=O)c3cc(C)no3)c2C)cc1	2.3	2	1%	1	-50
Cc1cc(C)cc(N2C(N)=NC(N)=NC2c2cccc(Cl)c2)c1 (centres undefined)	5.5	/	/	-2	/
CCOc1cccc(C(=O)NNC(=O)C2C3C=CC(C3)C2C(=O)O)c1 (centres undefined)	1.3	/	/	-2	/
CN1CCCN(C(=O)/C=C/c2ccc(F)cc2)CC1	-1.9	-2	-5%	-1	-48
O=C(CNS(=O)(=O)c1ccc([N+](=O)[O-])cc1)N/N=C\c1ccc(O)cc1	1.2	/	/	-1	/
CN1C2=C(C(=O)CC(C)(C)C2)C(c2cccs2)C2=C1CC(C)(C)CC2=O	-255	/	/	-6	/
CC(=O)NCC(=O)N(C)C(C(=O)Nc1ccc2c(c1)OCCO2)c1ccccc1 (centres undefined)	-1.7	2	4%	-3	-127
COc1cc(C2Nc3cc(Cl)c(S(N)(=O)=O)cc3S(=O)(=O)N2)cc(OC)c1OC (centres undefined)	-1.5	-4	-9%	-15	-51
O=C(c1ccc([N+](=O)[O-])cc1)N1CCN(c2ncc(Br)cn2)CC1	11	/	/	-4	/
CCc1c(C)nn(C(=O)/C(C#N)=C\N(C)C)c1C	-3.3	3	7%	1	/
O=C(Cc1ccccc1)Nc1cccc(C(=O)O)c1O	-1.1	4	0%	-5	/
Cc1nc(C)c(C(=O)N2CCCC(C(=O)c3ccc4ccccc4c3)C2)s1 (centres undefined)	1.2	/	/	-3	/
O=C(C1CCN(c2ncnc3c2nc2n3CCCCC2)CC1)N1CCCCC1	1.1	/	/	61	/
Next results follow:
SMILES	RecA splice inh	Arbovirus inh	Mtb growth	Mtb betalactam	YopH inh	others
CN(C)C1(CNC(=O)Nc2ccccc2)CCCCC1	0.8	/	/	3	/
CCOCCc1nnc(NC(=O)c2cc(OC)c(OC)c(OC)c2)s1	0.7	-1	-9%	2	-44
Cc1cc(NS(=O)(=O)c2ccc(Cl)cc2)nn1CC(=O)NCc1ccco1	-2.3	5	1%	0	-16
Cc1c(NC(=O)Cc2ccccc2)cccc1C(=O)NN1C(=O)c2ccccc2C1=O	-4.5	-1	-4%	6	-25
O=C(Cn1cccc1C(=O)c1ccccc1)NCc1cccnc1	1.2	-8	-11%	-1	4
COc1ccc(NC(=O)C2C3CCC(O3)C2C(=O)O)c(OC)c1 (centres undefined)	-3.2	/	/	0	/
CSCCC(NC(=O)c1cccc([N+](=O)[O-])c1)C(=O)O (centres undefined)	-2.9	-6	-1%	-8	-25
NC(=O)CSc1nnc(COc2ccccc2)n1Cc1ccco1	-1.1	12	3%	-3	/
CC(=O)Nc1ccc(SCC(=O)N(C)C2CCS(=O)(=O)C2)cc1 (centres undefined)	-4.3	4	-5%	-5	/
COC(=O)c1ccc(-c2ccc(C(=O)N3CCCN(C)CC3)cc2)cc1	0.2	-8	-3%	/	-37
COc1ccc2nc(NC(=O)CS(=O)(=O)Cc3ccccc3)sc2c1	2.9	7	1%	3	/
Cc1cccc(-n2ncc3c(N4CCC5(CC4)OCCO5)ncnc32)c1	3.1	-7	11%	51	/	Arbovirus inh repeat=-4
Clc1ccc(C2CSc3c4ncnc-4ncn32)cc1 (centres undefined)	1.5	/	-6%	0	/
CCCCSc1nc(NCc2ccco2)c2c3c(sc2n1)COC(C)(C)C3	4.0	12	-3%	-3	6
O=C(O)CCC(CNS(=O)(=O)c1ccccc1)C(F)(F)F (centres undefined)	0.8	20	1%	-13	/
CC(=O)c1ccc(OCC(O)CN2CCN(CCN3C(=O)c4cccc5cccc(c45)C3=O)CC2)cc1 (centres undefined)	3.2	2	30%	0	-20
O=Cc1ccc2c(c1)CCN2Cc1ccccc1	-1.3	/	/	7	/
CCN1CCN(c2cc(SC(C)C)nc(-c3ccc(OC)cc3)n2)CC1	3.7	-14	/	/	-3
Cc1ccc(S(=O)(=O)n2ccc3c(OCCOCCNCc4ccc(F)cc4)cccc32)cc1	9.7	/	/	98	/
N#Cc1ccc(-c2csc(NNC(=O)c3ccccc3)n2)cc1	-1.6	-29	5%	10	-35
CC1(C)NC(=O)N(CCCCOc2ccc(Cl)cc2)C1=O	-0.2	1	-1%	-1	-27
O=C(NCCNS(=O)(=O)c1ccccc1Cl)c1cc(OCC(F)(F)F)ccc1OCC(F)(F)F	/	1	-8%	-1	-13
COc1cccc(N(C(=O)Cn2nnc(-c3ccc(C)o3)n2)C(C(=O)NC2CCCC2)c2ccncc2)c1 (centres undefined)	-0.9	/	/	-8	/
